From PubChem
PINK1 expr mod: A Quantitative High throughput Screen to Identify Chemical Modulators of PINK1 Expression; Potency, µM (doses to about 76.6 µM), for the others: top-dose activation (PINK1 increase), most hits filed as activators; AID 624263, 2012; actives 0.2% (n = 410,000); PINK1 immunofluorescence, high-content cytometry, 24 h; active = well fitted activation curve with a large enough effect; inconclusive = small, poorly fitted or top-dose-only effect; inactive = flat fitted curve, though single readings scatter; cell line not stated here;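 further: potency means the concentration at half of the fitted maximal effect; % of control where 0% means no effect; nearly all actives have a fitted effect of over 65% in size; a mitochondrial uncoupler was the plate control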
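Stable cell line, 250 cells/well, 12 h attachment; compounds pinned at 5 concentrations, 24 h; CCCP control. Fixed with nuclear dye, primary antibodies 12 h at 10 degrees C, secondary plus cell stain; laser-scanning cytometer read.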
CtBP-E1A inh: qHTS Assay for Inhibitors of the CtBP/E1A Interaction. AlphaScreen GST-E1A/His-CtBP binding, 1536-well; stronger effect = lower value; control for the full effect not named in the record. activity change, % (concentration not given with the values). actives 0.49% (n = 340,000). AID 651724, 2012; in the data active means activity change below about -65%; inconclusive means about -30% to -65%; inactive means above about -30%; further: on the % scale 0 is the no-effect control and ±100 the full control effect
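Steps: dispense buffer (Tris pH 8.0, NaCl 300 mM, TCEP 1 mM, BSA, Tween 20); add 5X protein mix (GST-E1A, His-CtBP, 125 nM each); pin 23 nL compound; 2 h at 37 °C, dark; add 5X beads (50 ug/mL); 1 h; read.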
TRPML1 blocker: qHTS for Inhibitors of the Human Mucolipin Transient Receptor Potential 1 (TRPML1); Mucolipin-1 (Homo sapiens), Q9GZU1; TRPML1-inducible cells, Ca2+ dye fluorescence, FDSS; stronger effect = lower value; inhibition of EC80 agonist-evoked calcium signal; activity change, negative = inhibition, % (no concentration beside the values); actives 0.02% (n = 390,000); AID 624415, 2012; in the data active means activity change below about -50%; inconclusive means about -30% to -50%; inactive means above about -30%;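 further: stimulus is agonist 54-4 at its EC80 concentration; on the % scale 0 is the no-effect control and ±100 the full control effect; compound concentration not given in the record; the text of the record puts the active cut at -80%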
Target sequence (Q9GZU1 whole entry, looked up): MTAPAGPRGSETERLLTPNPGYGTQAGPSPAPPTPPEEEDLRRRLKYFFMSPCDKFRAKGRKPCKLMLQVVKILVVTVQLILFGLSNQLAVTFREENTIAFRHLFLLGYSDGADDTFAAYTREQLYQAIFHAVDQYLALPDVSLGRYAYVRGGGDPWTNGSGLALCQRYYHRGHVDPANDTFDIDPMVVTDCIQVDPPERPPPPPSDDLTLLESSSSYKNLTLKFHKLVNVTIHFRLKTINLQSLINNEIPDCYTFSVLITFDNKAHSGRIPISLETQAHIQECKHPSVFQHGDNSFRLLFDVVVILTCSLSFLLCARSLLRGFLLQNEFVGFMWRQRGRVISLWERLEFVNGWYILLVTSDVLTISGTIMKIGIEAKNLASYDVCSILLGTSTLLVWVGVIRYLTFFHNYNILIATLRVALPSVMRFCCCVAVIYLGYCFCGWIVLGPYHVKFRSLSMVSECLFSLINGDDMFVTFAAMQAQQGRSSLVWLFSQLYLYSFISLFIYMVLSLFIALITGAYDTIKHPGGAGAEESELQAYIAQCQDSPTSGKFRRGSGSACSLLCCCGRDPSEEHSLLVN
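TRPML1-DL cells, Tet-induced overnight (~16 h, 37 °C) at 1,500 cells/well, were loaded with Ca8 no-wash dye plus quencher for 45-90 min at room temperature. Compounds were pinned during FDSS kinetic reading; agonist 54-4 at EC80 (4 uM final) then added.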
TRPML1 agonist: qHTS for Agonists of the Human Mucolipin Transient Receptor Potential 1 (TRPML1) | activation, % (concentration not given with the values) | Mucolipin-1 (Homo sapiens), Q9GZU1 | actives 0.12% (n = 410,000) | AID 624414, 2012 | TRPML1-expressing cells, Ca2+ dye fluorescence, FDSS; host cell line not named in the record; reference of the full effect not given here; in the data active = activation above about 50%; inconclusive = about 30% to 50%; inactive = below about 30%; further: 0% is about no effect; the text of the record puts the active cut at 80%
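In this qHTS format, compounds were pin-transferred onto Ca8-dye-loaded TRPML1-DL cells induced with Tet overnight, and intracellular Ca2+ fluorescence was recorded kinetically for 110 s after a 10 s baseline. A subsequent 4uM final 54-4 (EC80) addition followed by a second 110 s read served as the antagonist phase.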
Six1-Eya2 blk: qHTS Assay for Inhibitors of the Six1/Eya2 Interaction. activity change, % (no concentration beside the values). AlphaScreen GST-Six1/His-Eya2 binding, biochemical; stronger effect = lower value; control for the full effect not named in the record. actives 0.56% (n = 360,000); in the data active = activity change below about -65%; inconclusive = about -30% to -65%; inactive = above about -30%; further: on the % scale 0 is the no-effect control and ±100 the full control effect; compound concentration not given in the record
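GST-Six1 + His-Eya2 (5X stock: 250/500 nM); Tris pH 8.0, 300 mM NaCl, 0.05% BSA, 0.02% Tween 20; GSH donor/Ni acceptor beads; 1 h 37 °C dark; AlphaScreen readout.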
D2 agonist: Beta-Arrestin HTS for Positive Allosteric Modulators of the Human D2 Dopamine Receptor: Agonists; D(2) dopamine receptor (Homo sapiens), P14416; actives 0.084% (n = 360,000); AID 624465, 2012; DiscoveRx PathHunter D2 beta-arrestin, luminescence, 90 min; 100% = 57 uM dopamine signal; activation, % (test concentration not listed); in the data active = activation above about 40%; inconclusive = about 15% to 40%; inactive = below about 15%; further: compound concentration not given in the record; the text of the record calls up to 30% inactive
Target sequence (P14416 whole entry, looked up): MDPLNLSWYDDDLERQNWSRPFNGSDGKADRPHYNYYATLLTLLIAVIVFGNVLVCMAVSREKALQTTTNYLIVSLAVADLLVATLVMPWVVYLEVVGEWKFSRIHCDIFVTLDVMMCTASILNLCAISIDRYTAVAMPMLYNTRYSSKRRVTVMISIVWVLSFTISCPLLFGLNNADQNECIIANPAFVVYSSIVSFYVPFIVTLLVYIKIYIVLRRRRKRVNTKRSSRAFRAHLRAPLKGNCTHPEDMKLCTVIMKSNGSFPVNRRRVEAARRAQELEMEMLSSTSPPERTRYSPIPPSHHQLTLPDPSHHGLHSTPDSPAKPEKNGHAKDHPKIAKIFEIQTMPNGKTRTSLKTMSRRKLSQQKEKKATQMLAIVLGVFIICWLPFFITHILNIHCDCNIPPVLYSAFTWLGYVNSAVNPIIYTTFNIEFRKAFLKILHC
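Agonist mode: compounds alone added to overnight-plated D2 PathHunter cells for 90 min at 37 C, with 57 uM final dopamine (EC100) defining full response. Beta-arrestin recruitment detected by chemiluminescent reagent, read after 1 h at ambient temperature.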
An asterisk follows results filed as active; ? = inconclusive; . = no result given; [ ] = another dose, or the depositor's remark. These rows are one share of the data (hit frequency here may not be typical).

Sequence of screens: PINK1 expr mod	CtBP-E1A inh	TRPML1 blocker	TRPML1 agonist	Six1-Eya2 blk	D2 agonist
C=C1C(=O)[C@@]23C[C@H]4[C@@H]5[C@@]6(C)CCC[C@@]57[C@@H]2[C@@H](O)[C@@H]1C[C@H]3[C@H]7N4C6
  -0.7%	-8	.	.	8	-6.5
CCC(C)N1C(=O)NC(=O)C2(Cc3c(ccc4ccccc34)N(C)C2)C1=O (stereo not drawn)
  -2.2%	-5	4	5.3	-8	7.5
CC(C)=CCC12CN3CCN(CC(C3)C1=O)C2
  0.7%	4	0	-0.6	4	-2.4
COc1ccc(C2SCC(=O)Nc3c2c(=O)[nH]n3C2CCCCCC2)cc1 (stereo not drawn)
  1.1%	3	4	-0.7	0	-4.6
O=C1NC(=S)NC(=O)C12C(c1ccc(F)cc1)NC(=S)NC2c1ccc(F)cc1 (stereo not drawn)
  0.3%	-9	-7	0.7	-2	0.0
CCC(=Nc1ccccc1NC(C)=O)c1c(O)n(C)c(=O)n(C)c1=O
  -0.5%[38.3 µM]	5	-11	0.3	4	-1.0
O=C1NC(=O)N(c2ccccc2F)C(=O)/C1=C/c1ccc(Sc2nc3ccccc3[nH]2)o1
  1.4%	3	2	?	?	-4.6
CC(=NCCN1CCCCC1)c1c(O)[nH]c(=O)[nH]c1=O
  -3.0%	-5	8	0.6	4	-1.8
Cc1ncoc1C(=O)NCC1=C(c2ccc(S(C)(=O)=O)cc2)C[C@@H]2CC[C@H]1N2Cc1ccco1
  -0.5%	2	9	-0.3	2	-8.9
CC(C)n1c(=O)c(C=Nc2ccc(S(N)(=O)=O)cc2)c(O)n(Cc2ccco2)c1=O
  -1.5%	1	16	-0.6	6	-1.8
O=C(c1ccc2c(c1)N(Cc1ccc(F)cc1)C(=O)c1ccccc1S2)N1CCC2(CC1)OCCO2
  0.4%	.	-20	1.2	.	.
CN1CCN(c2ccc(N)c(N3CCN(C)CC3)c2)CC1
  0.3%	-7	2	-0.6	-7	0.5
O=c1c2ccccc2nc(/C=C/c2ccc3c(c2)OCO3)n1-c1ccccc1
  -0.9%	13	4	-0.4	-8	-3.8
CC1=CP(=O)(Oc2ccc([N+](=O)[O-])cc2)CC1 (stereo not drawn)
  1.1%	-5	0	-0.5	1	-4.7
Cn1cc(C(O)CN2CCCCC2)c2ccccc21 (stereo not drawn)
  0.2%	.	19	-0.8	-7	-3.1
CCCC[N+]12CCC(CC1)C(C(O)(c1ccccc1)c1ccccc1)C2 (stereo not drawn)
  -1.0%	4	-15	0.2	6	-4.0
COc1cc(O)c2c(c1)/C=C/C[C@H](O)[C@H](O)C(=O)CCC[C@H](C)OC2=O
  4.2%	-4	.	-0.2	-2	13
C=C(C)[C@@H]1C2C(=O)O[C@H]1[C@H]1OC(=O)[C@@]34OC3C[C@]2(O)[C@@]14C (stereo partly drawn)
  0.2%	1	-15	-0.4	10	-1.4
COC(=O)[C@@H]1C[C@]2(C(=O)O)c3ccccc3N(OOSc3ccccc3)[C@@H]2N1C(=O)OC
  1.0%	-3	0	-0.5	-1	-4.5
CN1c2ccccc2Oc2ccccc21
  9.7%	2	2	-0.4	-1	0.3

Other entries follow.
Sequence of screens: PINK1 expr mod	CtBP-E1A inh	TRPML1 blocker	TRPML1 agonist	Six1-Eya2 blk	D2 agonist
Cc1ccc2cc3cc(C(=O)N4CCC5(CC4)OCCO5)oc3nc2c1
  0.2%	1	15	-1.0	3	-7.1
FC(F)(F)c1ccc(CNCCc2c[nH]c3ccccc23)cc1
  13%	-17	0	0.3	-6	-4.1
CN(C)S(=O)(=O)c1cc(NC(=O)COC(=O)Cc2ccccc2)ccc1Cl
  0.0%	6	15	4.2	2	2.1
CCN(CC)CCN=Cc1c(O)n(C2CCCCCC2)c(=O)[nH]c1=O
  -1.1%	9	5	0.3	2	0.9
COC(=O)C1=C(N)Oc2cc(C)oc(=O)c2C12C(=O)Nc1ccccc12 (stereo not drawn)
  -1.3%	.	0	0.3	-10	-3.6
OCC(Br)CBr (stereo not drawn)
  1.1%	4	6	-0.2	-2	-1.9
CN(C)c1ccc(NC(=O)CN2C(=O)CN=C(c3ccccc3)c3cc(Cl)ccc32)cc1
  0.5%	-6	4	-0.4	?	9.3
COc1ccc(-n2c(CN3CCOCC3)nc3ccccc3c2=O)c(OC)c1
  -1.9%	.	9	-1.1	?	8.3
CNS(=O)(=O)c1ccc(-c2ccc(C=C3C(=O)NC(=O)NC3=O)o2)cc1
  2.2%	0	16	-0.6	-3	-6.7
C=CCN(CC=C)C(=O)CCN1CC1C (stereo not drawn)
  0.1%	6	-1	-0.7	0	-3.0
CC(=O)OC1N=C(c2ccc(Cl)cc2)c2cc(Br)ccc2NC1=O (stereo not drawn)
  -1.5%	-1	24	-0.2	-3	-3.7
CCCc1[nH]nc2c1C1(C(=O)N(Cc3ccccc3)c3ccccc31)C(C(=O)OC)=C(N)O2 (stereo not drawn)
  -0.5%	-1	4	2.8	-2	-4.1
C/C(=N\NC(=O)c1ccccc1O)c1c(O)n(Cc2ccccc2)c(=O)[nH]c1=O
  1.4%	1	2	-0.1	-22	-2.1
Cc1ccsc1CNCCc1ccc(F)cc1
  1.0%	-3	-5	0.2	10	-6.6
O=C1N(c2nncs2)CCN1[N+](=O)[O-]
  0.6%	.	-7	2.5	2	3.9
CC/C(=N\Nc1ccccc1)c1c(O)n(C)c(=O)n(C)c1=O
  -1.2%	-7	41	0.0	10	8.8
COc1c(C)cc(C(=O)C2CCCN(Cc3ccccn3)C2)cc1C (stereo not drawn)
  4.9%	-3	-4	-0.5	-2	-1.7
O=C(Cc1cccc(C(F)(F)F)c1)N1CCN(CC(=O)N2CCCC2)CC1
  -0.6%	.	-2	0.0	0	-3.3
CC(=NCCN(C)C)c1c(O)n(Cc2ccccc2)c(=O)[nH]c1=O
  -0.4%	1	-5	4.4	-1	0.2
O=c1c([N+](=O)[O-])cn(O)cc1[N+](=O)[O-]
  -1.2%	-13	26	-0.4	-13	3.6

Next part.
Sequence of screens: PINK1 expr mod	CtBP-E1A inh	TRPML1 blocker	TRPML1 agonist	Six1-Eya2 blk	D2 agonist
COc1cc(C(O)CN)ccc1O (stereo not drawn)
  -0.6%	6	-4	0.5	-2	-2.9
C=CCn1c(O)c(C(C)=NCCN2CCCCC2)c(=O)[nH]c1=O
  3.7%[38.3 µM]	7	-13	0.0	4	0.5
Cc1ccc(Cn2nnnc2CN2CCC(n3nnc4cc(C)ccc43)CC2)cc1
  -0.9%	-1	-14	1.7	0	-0.7
CC(=O)c1ccc2c(c1)C1C(Cl)C(Sc3ccccc3[N+](=O)[O-])CC1C(C(=O)O)N2 (stereo not drawn)
  5.8%	4	6	-0.3	-21	-3.6
c1ccc2c(c1)OCC(C1=NCCN1)O2 (stereo not drawn)
  3.0%	-3	10	-0.1	1	-4.9
O=C(O)c1ccccc1-c1ccc(C=C2C(=O)N(c3ccccc3)C(=S)N(c3ccccc3)C2=O)o1
  0.2%	.	.	.	-3	3.0
C=CCn1c(O)c(C(C)=Nc2ccc(C(=O)O)cc2)c(=O)[nH]c1=O
  2.4%	2	0	0.1	9	-0.2
O=P1(Oc2ccccc2)CC=C[C@H](COCc2ccccc2)O1 (stereo partly drawn)
  -1.2%	4	-5	-0.5	-5	-0.1
Cc1cc(=O)oc2c(C)c(OCC(=O)N3CCN(Cc4ccc5c(c4)OCO5)CC3)ccc12
  1.1%	-12	-3	-0.8	-3	-3.9
COc1cc(CN2CCN(c3cc(C)ccc3C)CC2)ccc1O
  1.4%	-4	-2	2.5	-11	-0.3
CCN1C[C@@]2(COC)C3[C@@H](OC)[C@H]4[C@@H]1[C@@]3(C1C[C@H]3[C@H](O)C1[C@]4(O)C[C@H]3OC)[C@@H](OC)C[C@H]2O (stereo partly drawn)
  0.9%	9	.	.	3	8.2
COC(=O)C1=C(c2c(C)noc2C)C[C@@H]2CC[C@H]1N2C(=O)N1CCC(O)(c2ccc(Cl)cc2)CC1
  0.5%	7	4	-0.3	-2	1.6
COc1ccccc1-n1c(O)c(/C=N/NC(=S)Nc2ccccc2)c(=O)[nH]c1=S
  -0.4%	.	13	0.5	-2	-11
C[N+]1(C)C2CCC1CC(OC(=O)c1ccco1)C2 (stereo not drawn)
  0.5%	9	-13	0.6	-1	-2.0
OC(CN1CCC(c2c[nH]c3ccccc23)CC1)C(F)(F)F (stereo not drawn)
  0.2%	.	-5	-0.5	-16	-5.3
COc1c2c(cc3c1OCO3)CCN(C)C2
  0.2%	1	-9	-0.6	-1	-4.6
COc1ccc(C2=NCC(=S)Nc3ccc(Cl)cc32)cc1Cl
  4.1%	.	12	3.5	2	0.0
CCOC(=O)C1CCCN(c2ccc([N+](=O)[O-])c3nonc23)C1 (stereo not drawn)
  ?	-21	-6	89*	-18	4.3
N#CC(CCN1CCOCC1)(c1ccccc1)c1ccccc1
  -0.8%	.	-1	-0.4	4	-6.8
CCn1c(O)c(/C(C)=N/N2CCCCC2c2cccnc2)c(=O)[nH]c1=S (stereo not drawn)
  ?	17	-10	-0.2	-8	2.7

Compound profiles, as listed above. Values in the order: PINK1 expr mod	CtBP-E1A inh	TRPML1 blocker	TRPML1 agonist	Six1-Eya2 blk	D2 agonist
`COc1cc(CN2CCN(c3cc(C)ccc3C)CC2)ccc1O` is entered as 1.4%	-4	-2	2.5	-11	-0.3
`COc1ccccc1-n1c(O)c(/C=N/NC(=S)Nc2ccccc2)c(=O)[nH]c1=S` is entered as -0.4%	.	13	0.5	-2	-11
`CC(=O)c1ccc2c(c1)C1C(Cl)C(Sc3ccccc3[N+](=O)[O-])CC1C(C(=O)O)N2` (stereo not drawn) is entered as 5.8%	4	6	-0.3	-21	-3.6
`c1ccc2c(c1)OCC(C1=NCCN1)O2` (stereo not drawn) is entered as 3.0%	-3	10	-0.1	1	-4.9

Grouped by structure: the entries above containing a CF3 group.
Sequence of screens: PINK1 expr mod	CtBP-E1A inh	TRPML1 blocker	TRPML1 agonist	Six1-Eya2 blk	D2 agonist
FC(F)(F)c1ccc(CNCCc2c[nH]c3ccccc23)cc1
  13%	-17	0	0.3	-6	-4.1
O=C(Cc1cccc(C(F)(F)F)c1)N1CCN(CC(=O)N2CCCC2)CC1
  -0.6%	.	-2	0.0	0	-3.3
OC(CN1CCC(c2c[nH]c3ccccc23)CC1)C(F)(F)F (stereo not drawn)
  0.2%	.	-5	-0.5	-16	-5.3
